# FGF22 binding – binders of human FGF22 protein, primary screen, FGF22 synaptogenesis inhibitor project, biophysical, thermal shift, single point; Fibroblast growth factor 22 (Homo sapiens), Q9HCT0; recombinant FGF22 thermal shift, SYPRO orange fluorescence; percent of sucrose octasulfate shift, DMSO zero; calls only at 9.99 µM; 1.5% of 340,000 active; AID 651658, 2012;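 active = melting point raised past a set limit in the mean and every replicate; three in four hits are not shown here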
# Target sequence (Q9HCT0 whole entry, looked up): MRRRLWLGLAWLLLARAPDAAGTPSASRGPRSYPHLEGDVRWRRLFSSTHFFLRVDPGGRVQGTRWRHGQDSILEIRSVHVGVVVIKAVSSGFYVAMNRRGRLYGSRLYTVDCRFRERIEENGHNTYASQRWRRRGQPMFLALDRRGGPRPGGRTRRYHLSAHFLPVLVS
# E coli growth – E. coli growth inhibition, primary screen, OD600; 0.21% of 330,000 active; OD600 absorbance (concentration not given with the values); Escherichia coli growth, 23 h; active compounds read low;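 active = OD600 absorbance below the run mean of sample wells minus 3.6 SD, in any replicate, cut at about 0.56 in these data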;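 note: stock transfer was 300 nL into about 60 µL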
# UCH37 DUB inh – inhibitors of human UCH37 deubiquitinase, primary screen, biochemical, Ub-AMC cleavage, fluorescence | Ubiquitin carboxyl-terminal hydrolase isozyme L5 (Homo sapiens), Q9Y5K5 | purified proteasome/UCH37 | inhibition, % (concentration not given with the values) | 0.33% of 330,000 active | AID 588478, 2011;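 active = mean of two replicates above 20%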;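 note: 0% = compound-free wells with enzyme and 100% = wells lacking proteasome; stock transfer was 100 nL into about 20 µL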
# Target sequence (Q9Y5K5 whole entry, looked up): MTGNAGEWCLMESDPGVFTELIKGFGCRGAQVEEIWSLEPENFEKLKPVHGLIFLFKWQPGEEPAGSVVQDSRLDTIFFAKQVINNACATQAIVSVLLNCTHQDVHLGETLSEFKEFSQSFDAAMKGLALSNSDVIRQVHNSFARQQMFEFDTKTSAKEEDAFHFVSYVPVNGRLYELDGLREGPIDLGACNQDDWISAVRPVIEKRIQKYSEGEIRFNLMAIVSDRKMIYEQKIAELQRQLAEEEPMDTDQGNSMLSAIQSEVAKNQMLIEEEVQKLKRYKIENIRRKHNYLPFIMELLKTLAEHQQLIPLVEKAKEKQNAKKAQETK
#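 Test system – human UCH37 enzyme supplied as purified proteasome complex · Incubation – 30 min preincubation with enzyme, 25 min cleavage at room temperature · Detection – AMC fluorescence from Ub-AMC cleavage, excitation 355 nm, emission 460 nm · Benchmarks – no-proteasome wells (full inhibition) and compound-free wells (no inhibition)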
# AF4-AF9 inh – inhibitors of AF4 peptide binding to AF9, primary screen, biochemical, AlphaScreen, biotin-AF4 peptide, FLAG-AF9, single point. inhibition, % at 10 µM. 0.47% of 350,000 active;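 active = every replicate reaching a set inhibition limit, whatever the replicate mean, cut at about 25% in these data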;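 note: 0% = plate neutral control median and 100% = total signal loss; the record names both 10 and 1 µM as test concentration; the first replicate is given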
# Target sequence (P42568 whole entry, looked up): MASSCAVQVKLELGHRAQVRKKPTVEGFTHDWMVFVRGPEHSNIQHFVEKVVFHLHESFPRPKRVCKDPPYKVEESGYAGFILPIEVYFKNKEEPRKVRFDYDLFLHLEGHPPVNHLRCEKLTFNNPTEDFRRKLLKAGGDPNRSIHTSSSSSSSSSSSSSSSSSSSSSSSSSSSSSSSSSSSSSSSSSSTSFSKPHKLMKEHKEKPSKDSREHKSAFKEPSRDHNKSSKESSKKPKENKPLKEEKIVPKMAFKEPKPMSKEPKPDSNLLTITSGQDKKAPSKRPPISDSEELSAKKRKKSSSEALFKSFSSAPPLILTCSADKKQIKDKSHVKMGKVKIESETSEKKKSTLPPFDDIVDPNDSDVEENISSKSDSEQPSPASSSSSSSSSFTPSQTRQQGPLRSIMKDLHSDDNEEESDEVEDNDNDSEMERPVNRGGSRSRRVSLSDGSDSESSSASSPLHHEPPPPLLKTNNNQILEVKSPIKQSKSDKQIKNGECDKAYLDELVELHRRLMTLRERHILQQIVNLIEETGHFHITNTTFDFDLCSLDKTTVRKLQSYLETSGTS
# Numbers without * were called inactive; i = inactive; . = no result given. This is a subset (hit frequency here may not be typical).
SMILES,FGF22 binding,E coli growth,UCH37 DUB inh,AF4-AF9 inh
C[C@@H]1CN([C@@H](C)CO)C(=O)Cc2cc(NC(=O)CCN3CCOCC3)ccc2O[C@H]1CN(C)S(=O)(=O)c1ccccc1,i,.,.,0.3
COCC(=O)N(C)C[C@@H]1Oc2ncc(C#C[C@@H](C)O)cc2C(=O)N([C@H](C)CO)C[C@@H]1C,i,.,.,-2.4
C[C@@H]1CCCCO[C@@H](CN(C)Cc2ccncc2)[C@@H](C)CN([C@H](C)CO)C(=O)c2cc(NS(=O)(=O)c3cccs3)ccc2O1,i,.,.,1.9
COc1ccc(Br)cc1C=NNC(=O)c1cc(OC)c(OC)c(OC)c1,.,0.7,0.4,.
Cc1nnc(C)n1N=Cc1cc(Br)cc(Br)c1O,.,0.68,-14,.
O=C(CSc1nnc(SCc2cccc3ccccc23)s1)NN=Cc1c[nH]c2ccccc12,.,0.73,2.4,.
Cc1cc(C)nc(SCc2ccc(C(=O)NN=Cc3cccnc3)cc2)n1,.,0.7,-0.9,.
Cc1ccccc1C=NNC(=O)c1cccnc1,.,0.63,2.5,.
CN1CCN(S(=O)(=O)c2cc([N+](=O)[O-])ccc2NN=Cc2ccc(Cl)cc2)CC1,.,0.72,-54,.
ON=Cc1ccc(-c2ccccc2)o1,.,0.65,4.7,.
CC(=NNC(=O)c1c(Cl)c(C)nn1C)c1cccc(NC(=O)COc2ccc(Cl)cc2)c1,.,0.74,1.1,.
ON=C1CCCc2c1nc(-c1ccccc1F)n2O,.,0.66,3.3,.
Cc1ccc(S(=O)(=O)NN=Cc2cn(-c3ccccc3)nc2-c2ccccc2)cc1,.,0.66,4.4,.
O=C(Cc1cccs1)NN=C/C=C/c1ccccc1[N+](=O)[O-],.,0.69,2.5,.
O=[N+]([O-])c1ccccc1NN=Cc1ccc2c(c1)OCO2,.,0.72,0.1,.
O=C(O)c1cccc(Cn2c(Cl)c(C=NNc3ccccc3)sc2=O)c1,.,0.66,8.9,.
CC(=NNC(=O)C(c1ccccc1)c1ccccc1)c1ccccn1,.,0.68,5.4,.
Cc1n[nH]c(=S)n1N=Cc1ccc(-c2ccc(Cl)cc2)o1,.,0.65,1.6,.
CC(/C=C/c1ccccc1)=NNC(=O)c1cc(C)nc2ccccc12,.,0.72,3.8,.
COc1ccc2ccccc2c1C=NNC(=O)c1cccnc1,.,0.66,1.4,.
CSc1ccc(C=Nn2c(C3CCCCC3)n[nH]c2=S)cc1,.,0.68,3.5,.
O=C(CCC(=O)Nc1ccc(F)cc1)NN=Cc1cccs1,.,0.7,6.6,.
Fc1cccc(F)c1C=NNc1ccccn1,.,0.62,8.9,.
CC(C)(C)OC(=O)NN=C/C=C/c1ccc2c(c1)OCO2,.,0.69,-1.4,.
CC(C)(C)c1ccc(C(=O)NN=Cc2ccc(OCCCF)cc2)cc1,.,0.71,-4.9,.
O=C(NC12CCC(O)C(SC1)C2=NO)c1ccccc1 (stereo not given),.,0.72,0.8,.
CCCOc1ccc(N2C(=O)CC(S/C(N)=N/N=C(C)c3cccs3)C2=O)cc1 (stereo not given),.,0.71,5.0,.
Cc1nn(-c2ccccc2)c(Cl)c1C=NNC(=O)OC(C)(C)C,.,0.67,1.1,.
Cc1ccc(O)c(C=NNC(=O)CN2CCCC2)c1,.,0.66,-32,.
Cc1cccc(C(=O)NN=Cc2ccc(OC3CSC3)cc2)c1,.,0.7,1.4,.
Oc1ccc(C=NN2CCCCC2)c(O)c1,.,0.67,1.2,.
COc1ccc(Br)cc1C(=O)NN=Cc1ccc2c(c1)n(C)c(=O)n2C,.,0.7,i,.
COc1cc(C=NNC(=O)c2ccc(Cn3nc([N+](=O)[O-])c(Cl)c3C)o2)ccc1O,.,0.67,8.1,.
O=C(NN=Cc1ccncc1)c1cc([N+](=O)[O-])cc([N+](=O)[O-])c1,.,0.65,3.7,.
O=C(O)COc1ccc(C=Nn2cnc3scc(-c4cccs4)c3c2=O)cc1,.,0.71,12,.
NC(N)=NN=Cc1ccc(OCc2ccc(Cl)cc2)cc1,.,0.045*,6.1,.
O=C(CN(Cc1ccccc1)S(=O)(=O)c1ccc2c(c1)OCCO2)NN=Cc1ccc(F)cc1,.,0.71,1.7,.
Cc1onc(-c2ccccc2)c1C(=O)NN=Cc1cccs1,.,0.66,4.8,.
COc1ccc(C(=O)NN=C(C)c2ccc(NC(=O)Cc3ccccc3)cc2)c(OC)c1,.,0.73,-33,.
Cc1cc(=O)[nH]c(NN=Cc2cccc(Br)c2)n1,.,0.68,8.1,.
O=c1c(Cl)c(NN=Cc2ccc(Br)cc2)cnn1-c1ccccc1,.,0.74,-16,.
Cc1cc(=O)[nH]c(NN=Cc2ccc(Br)s2)n1,.,0.62,10,.
O=[N+]([O-])c1ccccc1C=NN1CCN(Cc2ccccc2)CC1,.,0.61,-0.6,.
COc1ccccc1C=NNC(=O)c1nnn(-c2nonc2N)c1CN(C)c1ccccc1,.,0.7,-2.1,.
O=C(NN=Cc1coc2ccccc2c1=O)c1ccccc1Br,.,0.62,-4.8,.
Cc1ccc(C=NNc2cn[nH]c(=O)c2Cl)cc1,.,0.72,-29,.
Oc1ccc(C=NNc2cc(N3CCOCC3)nc(N3CCOCC3)n2)c(O)c1,.,0.64,6.5,.
CCN(CC)Cc1c(C(=O)NN=Cc2ccncc2)nnn1-c1nonc1N,.,0.72,3.8,.
CCOc1ccc(Br)cc1C=NNC(=O)c1ccncc1,.,0.72,1.3,.
CC(CC(=O)N1CCN(C=O)CC1)=NNC(=O)c1cc2ccccc2cc1O,.,0.62,-4.4,.
COc1ccc2nc(C)cc(SCC(=O)NN=Cc3ccccc3)c2c1,.,0.65,0.1,.
CCOc1cc(C=NNC(=O)c2cccc(S(=O)(=O)N3CCCC3)c2)ccc1OCC(=O)N(C)C,.,0.69,2.9,.
O=c1c2c3c(sc2ncn1N=Cc1ccco1)CCCC3,.,0.69,4.2,.
O=C(Cn1c(-c2ccccn2)nc2ccccc21)NN=Cc1ccccn1,.,0.69,2.6,.
CC(=O)Nc1ccc(C=NNc2ccc(C(=O)c3c(C)cc4ccccn34)cc2[N+](=O)[O-])cc1,.,0.69,4.6,.
NC(=O)NN=Cc1cn(-c2ccccc2)nc1-c1cccnc1,.,0.69,0.3,.
C(=NN1CCN(c2ccccn2)CC1)c1ccco1,.,0.64,4.2,.
O=C(NN=Cc1cccs1)c1cccc(NC(=O)c2ccccc2Cl)c1,.,0.74,2.6,.
CC(=NNC(=O)Cc1cc(=O)[nH][nH]1)c1ccc([N+](=O)[O-])cc1,.,0.7,6.0,.
CCOC(=O)C(=NNc1ccccc1Cl)N1CCN(C)CC1,.,0.66,3.8,.
# (more compounds)
SMILES,FGF22 binding,E coli growth,UCH37 DUB inh,AF4-AF9 inh
COc1ccc(C=NNC(=O)C2C(C=C(Cl)Cl)C2(C)C)c(OC)c1 (stereo not given),.,0.7,5.3,.
Oc1ccc(Br)cc1C=Nn1c(-c2ccccc2)n[nH]c1=S,.,0.67,1.9,.
CC(=NNC(=O)c1ccc(Br)o1)c1ccc(C)o1,.,0.68,12,.
COc1ccc(C=Nc2c(-c3ccc(OC)cc3)nc3n2CCS3)cc1,.,0.7,5.6,.
Cc1ccc(S(=O)(=O)N(CC(=O)NN=Cc2ccco2)c2cc(Cl)cc(Cl)c2)cc1,.,0.7,1.2,.
CC(=NNC(=O)c1ccccc1)c1ccc(NC(=O)C(F)(F)F)cc1,.,0.7,1.7,.
Cc1c(C=NNC(=O)c2ccc(F)cc2)cnn1C,.,0.68,3.9,.
O=C(NN=Cc1cccs1)c1cc(-c2ccncc2)nc2ccccc12,.,0.69,5.6,.
COc1ccc(C=NNc2ccccn2)cc1OC,.,0.66,13,.
Cc1cc(C)c2ccc(=O)n(CC(=O)NN=Cc3ccccc3Cl)c2n1,.,0.69,4.1,.
CCCCCC1CC(=NO)C=C(C)C1C(=O)OC (stereo not given),.,0.71,3.2,.
CC(=NNc1cc(N2CCCCC2)nc(C)n1)c1ccc(Br)cc1,.,0.64,0.1,.
COc1ccc(OC)c(C=NNC(=O)Cn2ccnc2C)c1,.,0.67,i,.
N#CCC(=O)NN=Cc1cc([N+](=O)[O-])ccc1N1CCCC1,.,0.71,3.6,.
Cc1cc(N=CN(C)C)on1,.,0.68,3.7,.
N#Cc1c(N=Cc2cccs2)sc2c1CCC2,.,0.76,4.0,.
CCOC(=O)C(CC)C(C)=NNC(=O)CCC(=O)Nc1ccc(Cl)cc1Cl (stereo not given),.,0.71,3.5,.
COc1ccc(C(=O)NN=C(C)CC(=O)N2CCN(C=O)CC2)cc1,.,0.68,0.7,.
O=[N+]([O-])c1ccccc1C=NN1CCN(c2ccccc2)CC1,.,0.66,-0.3,.
O=C(NN=Cc1ccncc1)C1C2CCCCCCC21 (stereo not given),.,0.71,2.4,.
CC(=NNC(=O)c1ccc(NS(=O)(=O)c2cccs2)cc1)c1ccc(O)cc1O,.,0.67,-1.6,.
CSc1nnc(-c2ccncc2)n1N=Cc1cn(-c2ccccc2)nc1-c1ccc(Cl)cc1,.,0.69,-0.5,.
CC(=O)N(N=Cc1ccc(C)cc1)c1nc(CCl)cs1,.,0.7,1.4,.
COc1ccc(NC(=S)NN=C2CCCc3c(C)cc(C)cc32)cc1,.,0.71,3.3,.
Cc1[nH]cnc1C(=O)NN=Cc1ccc([N+](=O)[O-])s1,.,0.41*,10,.
O=C(COc1ccc(C=NNS(=O)(=O)c2ccccc2)cc1)NCCc1ccccc1,.,0.68,5.8,.
O=C(NN=Cc1coc2ccccc2c1=O)c1cn(-c2ccccc2)nc1-c1ccccc1,.,0.71,-9.5,.
O=C(NN=C/C=C/c1ccco1)c1cccnc1,.,0.65,13,.
CC(=NNc1ccc(C(=O)O)cc1)c1ccc(S(=O)(=O)NCc2ccco2)cc1,.,0.69,19,.
O=C(NN=Cc1ccco1)C1CC1(c1ccccc1)c1ccccc1 (stereo not given),.,0.69,3.3,.
CC(=O)Nc1ccccc1NC(=O)CC(C)=NNC(=O)C1CCCCC1,.,0.63,3.4,.
COc1ccccc1N(CC(=O)NN=Cc1ccc(SC)cc1)S(C)(=O)=O,.,0.7,-10,.
COC(=O)c1sccc1NN=Cc1cccc(OC)c1O,.,0.7,5.1,.
COc1ccccc1C=NN1CCN(Cc2ccccc2Cl)CC1,.,0.66,0.9,.
CN(C)C(=NS(=O)(=O)c1ccc(Cl)cc1)c1ccc(F)cc1,.,0.72,3.0,.
COc1cc(C=NNC(=O)c2cccc(S(=O)(=O)N3CCCC3)c2)cc(OC)c1O,.,0.67,12,.
Cc1cccc(S(=O)(=O)c2c(N)n(N=Cc3ccccc3)c3nc4ccccc4nc23)c1,.,0.74,-151,.

# Ordered by length of the SMILES (lowest first): part of the list above
SMILES,FGF22 binding,E coli growth,UCH37 DUB inh,AF4-AF9 inh
N#Cc1c(N=Cc2cccs2)sc2c1CCC2,.,0.76,4.0,.
O=C(NN=C/C=C/c1ccco1)c1cccnc1,.,0.65,13,.
O=C(NN=Cc1ccncc1)C1C2CCCCCCC21 (stereo not given),.,0.71,2.4,.
COC(=O)c1sccc1NN=Cc1cccc(OC)c1O,.,0.7,5.1,.
COc1ccccc1C=NN1CCN(Cc2ccccc2Cl)CC1,.,0.66,0.9,.
CC(=O)N(N=Cc1ccc(C)cc1)c1nc(CCl)cs1,.,0.7,1.4,.
O=C(NN=Cc1ccco1)C1CC1(c1ccccc1)c1ccccc1 (stereo not given),.,0.69,3.3,.
O=[N+]([O-])c1ccccc1C=NN1CCN(c2ccccc2)CC1,.,0.66,-0.3,.
CN(C)C(=NS(=O)(=O)c1ccc(Cl)cc1)c1ccc(F)cc1,.,0.72,3.0,.
COc1ccc(C(=O)NN=C(C)CC(=O)N2CCN(C=O)CC2)cc1,.,0.68,0.7,.
COc1ccccc1N(CC(=O)NN=Cc1ccc(SC)cc1)S(C)(=O)=O,.,0.7,-10,.
CCOC(=O)C(CC)C(C)=NNC(=O)CCC(=O)Nc1ccc(Cl)cc1Cl (stereo not given),.,0.71,3.5,.
O=C(COc1ccc(C=NNS(=O)(=O)c2ccccc2)cc1)NCCc1ccccc1,.,0.68,5.8,.
CC(=NNc1ccc(C(=O)O)cc1)c1ccc(S(=O)(=O)NCc2ccco2)cc1,.,0.69,19,.
COc1cc(C=NNC(=O)c2cccc(S(=O)(=O)N3CCCC3)c2)cc(OC)c1O,.,0.67,12,.
CSc1nnc(-c2ccncc2)n1N=Cc1cn(-c2ccccc2)nc1-c1ccc(Cl)cc1,.,0.69,-0.5,.
Cc1cccc(S(=O)(=O)c2c(N)n(N=Cc3ccccc3)c3nc4ccccc4nc23)c1,.,0.74,-151,.
